LANA-H2B inh = blocks KSHV LANA binding to histone H2A/H2B | Q9QR71 | cell-free LANA-H2A/H2B peptide, fluorescence polarization | 320,000 tested, 0.6% active | inhibition, % (test concentration not listed); in the data active = inhibition mostly above about 10%, no sharp cut-off; inactive = mostly below about 6.7%;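 note: stock transfer was 7.5 nL into about 10 µL; 0% = median of vehicle wells and 100% = median of positive control wells; one replicate is shown; the record names a cut of 25% in any replicate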
Target sequence (Q9QR71 whole entry, looked up): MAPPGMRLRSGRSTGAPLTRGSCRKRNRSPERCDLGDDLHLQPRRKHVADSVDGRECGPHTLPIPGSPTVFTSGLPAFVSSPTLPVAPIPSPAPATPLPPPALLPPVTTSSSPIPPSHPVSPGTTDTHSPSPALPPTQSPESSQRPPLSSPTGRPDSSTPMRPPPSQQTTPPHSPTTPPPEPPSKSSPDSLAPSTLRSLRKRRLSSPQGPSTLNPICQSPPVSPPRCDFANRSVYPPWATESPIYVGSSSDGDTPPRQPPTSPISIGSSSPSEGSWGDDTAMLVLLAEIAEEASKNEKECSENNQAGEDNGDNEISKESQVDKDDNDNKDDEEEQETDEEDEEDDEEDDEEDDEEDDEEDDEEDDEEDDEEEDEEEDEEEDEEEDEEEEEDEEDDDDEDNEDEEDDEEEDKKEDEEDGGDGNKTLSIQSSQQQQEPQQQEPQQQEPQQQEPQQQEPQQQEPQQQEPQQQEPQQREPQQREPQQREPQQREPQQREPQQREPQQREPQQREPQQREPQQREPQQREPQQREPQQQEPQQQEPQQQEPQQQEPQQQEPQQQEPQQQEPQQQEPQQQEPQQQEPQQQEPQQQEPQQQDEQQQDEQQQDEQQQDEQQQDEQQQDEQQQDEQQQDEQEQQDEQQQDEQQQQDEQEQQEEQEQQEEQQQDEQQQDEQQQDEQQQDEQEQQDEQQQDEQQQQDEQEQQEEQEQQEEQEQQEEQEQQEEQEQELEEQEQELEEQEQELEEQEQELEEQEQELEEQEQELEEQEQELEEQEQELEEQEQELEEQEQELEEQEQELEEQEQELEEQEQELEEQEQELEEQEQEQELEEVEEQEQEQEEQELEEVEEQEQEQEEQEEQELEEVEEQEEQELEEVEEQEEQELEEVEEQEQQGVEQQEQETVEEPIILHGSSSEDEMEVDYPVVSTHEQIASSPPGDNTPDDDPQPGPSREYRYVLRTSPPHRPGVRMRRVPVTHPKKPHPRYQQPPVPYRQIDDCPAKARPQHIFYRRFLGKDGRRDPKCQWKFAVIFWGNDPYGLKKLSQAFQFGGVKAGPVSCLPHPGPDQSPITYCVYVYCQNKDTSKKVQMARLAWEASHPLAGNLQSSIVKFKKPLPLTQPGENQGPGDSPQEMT
RanGTP-Imp inh = disruptors of Ran-importin-beta complex formation – biochemical, FRET, CFP-Ran, YFP-importin-beta, homogeneous, primary screen. 300,000 tested, 1.1% active. inhibition, % (no concentration beside the values). cell-free CFP-Ran/YFP-importin-beta FRET ratio;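 active = most replicates above 15%; inconclusive = exactly half above 15%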;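 note: 0% = DMSO wells and 100% = Ran loaded with GDP instead of GTP; wells of about 40 µL received 100 nL stock; the first replicate is given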
Vif TR-FRET = inhibitors of Vif binding to APOBEC3G peptide, primary screen, biochemical, TR-FRET, GST-Vif 1-94, biotin-A3G peptide, dose response retest (AID 1117319); 260,000 tested, 0.57% active; one-dose inhibition, %; IC50 in µM for titrated hits; TR-FRET GST-Vif / biotin-A3G peptide binding; higher % means a stronger effect; test concentration not given here; strong numbers were not always called active;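 active = above the screen mean plus three standard deviations and confirmed in dose response; inconclusive = results disagree or hit not tested in dose response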;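 note: Vif residues 1-94 fused to GST binding biotinylated APOBEC3G peptide 110-148; 0% = full assay without inhibitor and 100% = GST in place of GST-Vif; retest series ran down from 100 µM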
Calb FLC = affects C. albicans growth with fluconazole. C. albicans CaCi-2 (fluconazole-resistant clinical isolate) + fluconazole, Alamar Blue growth, 48 h. growth inhibition, % (concentration not given with the values). 300,000 tested, 0.57% active;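 active = most replicates above 75%; inconclusive = exactly half above 75%; inactive = most below 75%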;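 note: all wells also contain fluconazole at 8 µg/ml as a sub-toxic cotreatment; 0% = median of DMSO wells and 100% = median of geldanamycin control wells; wells of about 8 µL received 7.5 nL stock; the first replicate is given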
AF4-AF9 inh = inhibitors of human MLL-AF4/AF9 interaction. AlphaScreen, biotin-AF4 peptide binding to FLAG-AF9. P42568. inhibition, % at 10 µM. 350,000 tested, 0.47% active;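 active = every replicate reaching a set inhibition limit, whatever the replicate mean, cut at about 25% in these data; inconclusive = mean inhibition reaches that limit but some replicates miss it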;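 note: 0% = plate neutral control median and 100% = total signal loss; the record names both 10 and 1 µM as test concentration; the first replicate is given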
A1 inh = inhibitors of the anti-apoptotic protein A1, read as caspase activation; MEF A1-2A-BIM cells, Caspase-Glo 3/7 luminescence, 3 h; percent of clofoctol response, vehicle zero; caspase activation, % (no concentration beside the values); 330,000 tested, 0.066% active;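 active = over half of replicate activation scores above 10%, or exactly half above 10 with the replicate mean above 10; inconclusive = replicate mean below 10 yet half the replicates above 10; inactive = over half of replicates below 10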;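 note: wells of about 30 µL received 50 nL stock; many hits fall short of the cut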
T cruzi inh = T. cruzi replication inhibition; T. cruzi beta-gal in NIH3T3, luminescence, 90 h; AID 1885; 300,000 tested, 1.4% active; inhibition, % (test concentration not listed);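 active = mean inhibition across valid replicates above about 55%, limit read from the data; inconclusive = mean below that limit but half or more replicates reach it; inactive = mean below it, under half of replicates reach it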;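 note: signal also drops with host cell toxicity which is not excluded here; 0% = plate median of DMSO wells and 100% = zero luminescence signal; higher percent means less beta-gal luminescence so fewer parasites; stock transfer was 50 nL into about 50 µL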
Beta apoptosis = blocks beta cell apoptosis | AID 435005 | 300,000 tested, 0.8% active | protection from apoptosis, % (concentration not given with the values) | INS-1E cytokine-induced death, ATP luminescence, 48 h; percent of positive-control rescue, neutral wells zero;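 active = all replicates at 75% or more, or half of them and the mean; inconclusive = half reach 75% but not the mean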;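 note: 0% = cytokine-treated negative control wells and 100% = positive control rescue; higher means more ATP so stronger rescue from cytokine killing; wells of about 40 µL received 100 nL stock; the first replicate is given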
Active calls of the source: *. Compounds were not picked by outcome (roughly 4.3% active in at least one column).

For Nc1c(C(=O)Nc2ccc3c(c2)OCCO3)nnn1Cc1ccccc1 the results were LANA-H2B inh -2.7, RanGTP-Imp inh -8.9, Vif TR-FRET 3%, Calb FLC 10, AF4-AF9 inh 1.9, A1 inh -2.5, T cruzi inh -14 and Beta apoptosis -3.
For COCCNC(=O)c1cccc(Nc2nc(-c3ccccc3)c3cc(Cl)ccc3n2)c1 the results were LANA-H2B inh -3.6, RanGTP-Imp inh -3.0, Calb FLC 11, AF4-AF9 inh 0.8, A1 inh 0.5, T cruzi inh 20 and Beta apoptosis 3.
CCN(CC)S(=O)(=O)c1ccc(N/N=C(\C)c2ccc3c(c2)OCO3)c([N+](=O)[O-])c1 was read as LANA-H2B inh -7.7, RanGTP-Imp inh -1.8, Vif TR-FRET 11%, Calb FLC -1, A1 inh 0.6, T cruzi inh -5 and Beta apoptosis 28.
`Nc1nc(CN2CCN(C(c3ccccc3)c3ccccc3)CC2)nc(Nc2ccccc2)n1` gave LANA-H2B inh -3.5, RanGTP-Imp inh 6.9, Vif TR-FRET 11%, Calb FLC -7, AF4-AF9 inh 9.2, A1 inh -0.2, T cruzi inh -16 and Beta apoptosis -5.
For CN(CC(=O)NCc1ccncc1)S(=O)(=O)c1ccccc1 the results were LANA-H2B inh -3.9, RanGTP-Imp inh 1.0, Vif TR-FRET inconclusive, Calb FLC 7, AF4-AF9 inh -5.7, A1 inh 0.3, T cruzi inh -9 and Beta apoptosis -3.
Screening Fc1c(F)c(C(F)(F)F)c(F)c(F)c1N/N=C\c1cccs1 returned LANA-H2B inh 5.1, RanGTP-Imp inh -1.0, Vif TR-FRET inconclusive, Calb FLC -8, A1 inh -0.3, T cruzi inh -13 and Beta apoptosis 10.
For COc1ccccc1N1CC(C(=O)Nc2nnc(SCc3ccccn3)s2)CC1=O (stereo not given) the results were LANA-H2B inh -2.7, RanGTP-Imp inh inconclusive, Calb FLC 2, A1 inh 1.9, T cruzi inh 4 and Beta apoptosis -6.
Screening CCN(c1cccc(C)c1)S(=O)(=O)c1ccc(-c2coc(C)n2)cc1 returned LANA-H2B inh -0.4, RanGTP-Imp inh 6.4, Calb FLC 18, AF4-AF9 inh -0.6, A1 inh -0.4, T cruzi inh 21 and Beta apoptosis 0.
`Cc1csc2c(N3CCN(S(=O)(=O)c4ccc(Cl)cc4)CC3)ncnc12` gave LANA-H2B inh 5.2, RanGTP-Imp inh 6.9, Vif TR-FRET 3%, Calb FLC -7, A1 inh -0.4, T cruzi inh 7 and Beta apoptosis -5.
Screening COC(=O)/C(=C\c1cc(OC)c(OC)c(OC)c1)c1nc2ccccc2[nH]1 returned LANA-H2B inh -11, RanGTP-Imp inh 1.8, Vif TR-FRET -2%, Calb FLC -3, AF4-AF9 inh 0.7, A1 inh 0.5, T cruzi inh 5 and Beta apoptosis -6.
`COc1ccc(N2CCN(S(=O)(=O)c3cc4c(cc3C)NC(=O)CO4)CC2)cc1` gave LANA-H2B inh 1.3, RanGTP-Imp inh -1.4, Calb FLC -2, AF4-AF9 inh -3.7, A1 inh 0.3, T cruzi inh -4 and Beta apoptosis 3.
Screening CCCn1c(SCC(=O)N2CCN(C(=O)c3ccco3)CC2)nc2ccccc2c1=O returned LANA-H2B inh 4.9, RanGTP-Imp inh -0.9, Vif TR-FRET 3%, Calb FLC -11, AF4-AF9 inh -0.2, A1 inh -0.5, T cruzi inh 9 and Beta apoptosis 8.
For CCN(CC)CCOC(=O)c1cccc(Cl)c1 the results were LANA-H2B inh 0.6, RanGTP-Imp inh 1.8, Vif TR-FRET 0%, Calb FLC 18, A1 inh 0.5, T cruzi inh 25 and Beta apoptosis -3.
Screening O=C(COC(=O)c1ccc(Br)c(S(=O)(=O)N2CCOCC2)c1)NCC1CCCO1 (stereo not given) returned LANA-H2B inh 15, RanGTP-Imp inh 0.5, Vif TR-FRET 6%, Calb FLC -2, A1 inh -0.4, T cruzi inh -17 and Beta apoptosis -2.
C/C(CCN1CCc2nc(-c3ccccc3)c(-c3ccccc3)cc2C1)=N\O[C@H](C)c1cn([C@H](CO)Cc2ccccc2)nn1 was read as LANA-H2B inh 4.2, RanGTP-Imp inh -1.3, Vif TR-FRET inconclusive, Calb FLC 2, A1 inh -1.0, T cruzi inh 31 and Beta apoptosis -11.
Screening Nn1c(COc2cccc(Br)c2)nnc1SCC(=O)NCC1CCCO1 (stereo not given) returned LANA-H2B inh -4.8, Vif TR-FRET -3%, AF4-AF9 inh 0.9, A1 inh 1.1 and Beta apoptosis -6.
`Cc1cc(NC(=O)CCN2C(=O)/C(=C\c3ccccc3)SC2=S)no1` gave LANA-H2B inh 1.2, RanGTP-Imp inh -1.1, Vif TR-FRET 9%, Calb FLC -1, AF4-AF9 inh -7.0, A1 inh -1.0, T cruzi inh 10 and Beta apoptosis -4.
Screening Brc1c(CSc2nncn2-c2ccccc2)nc2ncccn12 returned LANA-H2B inh 4.0, RanGTP-Imp inh -1.3, Vif TR-FRET -9%, Calb FLC 1, A1 inh -0.1, T cruzi inh 12 and Beta apoptosis -5.
For Cc1ccc(S(=O)(=O)N2CCCC2C(=O)NCCc2ccccc2)cc1 (stereo not given) the results were LANA-H2B inh 1.5, RanGTP-Imp inh -4.6, Vif TR-FRET 0%, Calb FLC -2, AF4-AF9 inh 0.0, A1 inh -0.7 and T cruzi inh -6.
For Cc1ccccc1C(=O)NCc1nnc(SCC(=O)N2CCN(c3ccccc3)CC2)n1C the results were LANA-H2B inh -3.3, RanGTP-Imp inh 0.1, Vif TR-FRET 1%, Calb FLC -3, A1 inh -0.6, T cruzi inh -9 and Beta apoptosis 0.
For CCc1c(O)nc(SCC(=O)Nc2ccc(C)cc2)n(C2CCCCC2)c1=O the results were LANA-H2B inh -2.8, RanGTP-Imp inh 3.3, Vif TR-FRET 3%, Calb FLC 15, AF4-AF9 inh -26, A1 inh -0.2, T cruzi inh 16 and Beta apoptosis -3.
Screening CC(C)OCCCNC(=O)Cn1ccc2cc(S(=O)(=O)N3CCCCC3)ccc21 returned LANA-H2B inh -0.9, RanGTP-Imp inh -0.3, Calb FLC -25, AF4-AF9 inh -10, A1 inh -1.0, T cruzi inh 5 and Beta apoptosis 1.
For CC(C)(C)NS(=O)(=O)c1ccc(CCC(=O)N2CCCCC2)cc1 the results were LANA-H2B inh -0.1, RanGTP-Imp inh -1.4, Vif TR-FRET 25%, Calb FLC 10, A1 inh 0.9, T cruzi inh 2 and Beta apoptosis -2.
For Cc1cc(Cl)ccc1NC(=S)N1CCN(C(=O)c2ccco2)CC1 the results were LANA-H2B inh 0.6, RanGTP-Imp inh 4.6, Calb FLC -4, AF4-AF9 inh -0.4, A1 inh -1.0, T cruzi inh -5 and Beta apoptosis -5.
Screening O=C(O)/C=C/c1ccc2c(-c3ccccc3)onc2c1 returned LANA-H2B inh 0.8, RanGTP-Imp inh -1.9, Calb FLC -18, AF4-AF9 inh 1.5, A1 inh -0.4, T cruzi inh 2 and Beta apoptosis -18.
COc1ccccc1C(C)NC(=O)CCOc1cccc(C)c1 (stereo not given) was read as LANA-H2B inh -2.9, RanGTP-Imp inh -1.8, Vif TR-FRET 1%, Calb FLC -7, AF4-AF9 inh 1.1, A1 inh 0.2, T cruzi inh -12 and Beta apoptosis 0.
Screening COc1ccccc1NS(=O)(=O)c1cc(NC(=O)CNC(=O)c2ccccc2)ccc1C returned LANA-H2B inh 1.7, RanGTP-Imp inh 3.8, Vif TR-FRET -6%, Calb FLC 21, AF4-AF9 inh 5.4, A1 inh 0.1, T cruzi inh -1 and Beta apoptosis -4.
O=C(Nc1ccc([N+](=O)[O-])cn1)C1CCCCC1 was read as LANA-H2B inh -3.5, RanGTP-Imp inh -6.2, Vif TR-FRET -3%, Calb FLC 1, A1 inh 0.3, T cruzi inh 3 and Beta apoptosis 1.
For COc1cccc(NC(=O)CN(C)C(=O)c2cc3c(s2)CCCC3)c1 the results were LANA-H2B inh 2.6, Vif TR-FRET -3%, AF4-AF9 inh 1.0, A1 inh -0.6 and Beta apoptosis 24.
Screening CC(C)CNS(=O)(=O)c1ccc(CCC(=O)N2CCC(C(N)=O)CC2)cc1 returned LANA-H2B inh 0.1, RanGTP-Imp inh 2.2, Vif TR-FRET -4%, Calb FLC -2, AF4-AF9 inh -1.2, A1 inh -0.9, T cruzi inh 4 and Beta apoptosis -4.
For Cc1csc(C(=O)O)c1-c1c(C)csc1C(=O)O the results were LANA-H2B inh 4.5, RanGTP-Imp inh -0.8, Vif TR-FRET -4%, Calb FLC -1, AF4-AF9 inh -9.9, A1 inh 0.7, T cruzi inh -15 and Beta apoptosis -2.
Screening Cc1cccc(NCC(O)Cn2cnc3c2c(=O)n(C)c(=O)n3C)c1 (stereo not given) returned LANA-H2B inh 3.5, RanGTP-Imp inh 0.9, Vif TR-FRET 2%, Calb FLC 5, A1 inh 0.1, T cruzi inh -5 and Beta apoptosis 9.
O=C(NCC(=O)N1CCCCCCC1)c1ccc(Cl)cc1 was read as LANA-H2B inh 1.6, Vif TR-FRET -5%, AF4-AF9 inh -1.2, A1 inh -0.7 and Beta apoptosis -2.
Screening Cc1cccc(NC(=O)c2onc3c2CCCC3)n1 returned LANA-H2B inh -1.6, RanGTP-Imp inh 3.1, Vif TR-FRET -3%, Calb FLC -19, AF4-AF9 inh 3.0, A1 inh -9.7, T cruzi inh -12 and Beta apoptosis 16.
Screening O=C(CSc1nc2ccccc2o1)NC(=O)NCc1ccccc1 returned LANA-H2B inh 1.6, RanGTP-Imp inh inconclusive, Vif TR-FRET -7%, Calb FLC -13, A1 inh -0.6, T cruzi inh -10 and Beta apoptosis 0.
`CCC(CO)N=CC1=C(O)CC(c2ccccc2)CC1=O` (stereo not given) gave LANA-H2B inh -1.0, RanGTP-Imp inh inconclusive, Calb FLC -1, AF4-AF9 inh 0.9, A1 inh 0.4, T cruzi inh -25 and Beta apoptosis -2.
For COc1ccc(CN(C)C(=O)c2ccccc2Sc2ccccc2C#N)cc1OC the results were LANA-H2B inh -10, RanGTP-Imp inh -3.8, Calb FLC 5, AF4-AF9 inh 1.3, A1 inh 0.4, T cruzi inh 24 and Beta apoptosis -5.
For COc1ccc(Cl)cc1NC(=S)NCCSc1ccc(C)cc1 the results were LANA-H2B inh -2.0, RanGTP-Imp inh -0.9, Vif TR-FRET 2%, Calb FLC 2, AF4-AF9 inh 2.9, A1 inh 0.1, T cruzi inh 28 and Beta apoptosis 0.
CN(CCNC(=O)c1ccc(/C=N/O)nc1)Cc1ccccc1 was read as RanGTP-Imp inh 0.4, Calb FLC -21, AF4-AF9 inh 2.8, A1 inh 1.5, T cruzi inh 2 and Beta apoptosis -7.
For C=C(C)Cn1c(=O)c2c(nc3n2CCN3c2cccc(Cl)c2C)n(C)c1=O the results were LANA-H2B inh 1.2, RanGTP-Imp inh -1.4, Calb FLC 3, A1 inh 0.6 and T cruzi inh 8.
OC(COCCC12CC3CC(CC(C3)C1)C2)CN1CCCCC1 (stereo not given) was read as LANA-H2B inh 2.7, RanGTP-Imp inh 3.8, Vif TR-FRET 5%, Calb FLC 8, AF4-AF9 inh 7.9, A1 inh 0.8, T cruzi inh 62* and Beta apoptosis 4.
Screening Cc1cc(N)c(-n2cc3c(=O)n(C)c(=O)n(C)c3c2)cc1C returned LANA-H2B inh -1.9, RanGTP-Imp inh -1.9, Vif TR-FRET -1%, Calb FLC -20, A1 inh -6.0, T cruzi inh 7 and Beta apoptosis 4.

Assay outcomes from PubChem BioAssay.
